Screening data: PubChem BioAssay, National Center for Advancing Translational Sciences (NCATS)
Lassa entry inh – qHTS for Inhibitors of binding or entry into cells for Lassa Virus; Lassa virus pseudotype entry inhibition, cell reporter; control for the full effect not named in the record; Potency, µM (highest dose often 37.9 µM), for the others: at the top dose activity change, negative = inhibition, hits mostly inhibitors; 300,000 tested, 1.2% active; AID 540256, 2011; active means well fitted inhibition curve with a large enough effect; inconclusive means small, poorly fitted or top-dose-only effect, or effect the other way; inactive means flat fitted curve, though single readings scatter; tested in HEK293 cells; further: on the % scale 0 is the no-effect control and ±100 the full control effect; nearly all actives have a fitted effect of over 50% in size; luciferase read-out
2A StopGo – High Throughput Screening for Foot and Mouth Disease Virus Antivirals; human cells with a luciferase reporter of 2A StopGo recoding; control for the full effect not named in the record; Potency, µM (series often up to 57.9 µM), inactives show top-dose signal change, negative = less light; 410,000 tested, 1.2% active; AID 1159524, 2015; active = well fitted falling curve with a large enough effect; inconclusive = small, poorly fitted or top-dose-only effect; inactive = no such curve, though single readings can be large or run the other way; tested in HEK293T cells; further: on the % scale 0 is the no-effect control and ±100 the full control effect; nearly all actives have a fitted effect of over 45% in size; luciferase light after 4 h
Cruzain noTriton – qHTS Assay for Promiscuous and Specific Inhibitors of Cruzain (without detergent); Cruzipain (Trypanosoma cruzi), P25779; purified cruzain, Z-FR-AMC fluorescence, no detergent; Potency, µM, for inactives: max response, negative = inhibition, usual class: inhibitors; 200,000 tested, 2.3% active; AID 1476, 2009; active means well fitted curve in the direction sought with a large enough effect; inconclusive means small, poorly fitted or top-dose-only effect, or another doubt; inactive means no such curve, though single readings can be large; an effect the other way counts as inactive or inconclusive;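 further: plate controls were enzyme without inhibitor for no effect and buffer without enzyme for full effect; nearly all actives have a fitted effect of over 40% in size; top concentration of the series not given in the record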
Target sequence (P25779 123-467 limits assumed): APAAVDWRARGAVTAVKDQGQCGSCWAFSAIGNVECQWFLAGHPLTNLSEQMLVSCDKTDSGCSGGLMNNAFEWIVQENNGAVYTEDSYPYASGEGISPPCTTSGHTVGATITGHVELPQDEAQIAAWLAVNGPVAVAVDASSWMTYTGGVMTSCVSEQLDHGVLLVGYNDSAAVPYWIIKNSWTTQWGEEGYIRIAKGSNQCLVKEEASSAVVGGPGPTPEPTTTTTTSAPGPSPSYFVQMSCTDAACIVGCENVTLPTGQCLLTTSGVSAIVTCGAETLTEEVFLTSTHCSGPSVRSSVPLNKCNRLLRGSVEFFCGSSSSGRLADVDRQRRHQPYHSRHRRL
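Purified cruzain at 1.5 nM, pre-incubated 15 min with compound at room temperature in 100 mM sodium acetate pH 5.5, 5 mM DTT, 0.00005% Triton X-100. Reaction started with 2 uM Z-FR-AMC; AMC fluorescence increase over 60 s gives rate.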
NS1 function inh – qHTS Assay for Inhibitors of Influenza NS1 Protein Function; Potency, µM (series often up to 46.1 µM), without a hit: top-dose activity, positive = more growth; 270,000 tested, 0.4% active; S. cerevisiae slowed by influenza A NS1, growth recovery by OD600; AID 2326, 2010; further: actives are rising curves; nearly all actives have a fitted effect of over 50% in size
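S. cerevisiae expressing influenza A NS1, grown in glucose, washed, then diluted 1:100 into pH 6.0 -URA galactose medium with 23 nl compound. Growth recovery read as OD600; NS1-free strain serves as control.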
SARS PLP yeast – qHTS of Yeast-based Assay for SARS-CoV PLP. S. cerevisiae expressing SARS-CoV PLpro, growth rescue; control for the full effect not named in the record. Potency, µM (top dose mostly 32.9 µM), for inactives: at the highest dose activity, positive = growth rescue. 330,000 tested, 0.19% active; further: 0% is about no effect; nearly all actives have a fitted effect of over 55% in size; growth read by luminescence after 48 h
RE007 growth inh – qHTS Assay for Inhibitors of the HIV-1 protein Vpr; 360,000 tested, 0.21% active; Potency, µM (top dose mostly 92.2 µM), for inactives: top-dose activity change, negative = less growth; S. pombe RE007 Vpr strain, BacTiter-Glo ATP luminescence, 24 h; control for the full effect not named in the record; active = well fitted falling curve with a large enough effect; inconclusive = small, poorly fitted or top-dose-only effect; inactive = no such curve, though single readings can be large or run the other way;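 further: on the % scale 0 is the no-effect control and ±100 the full control effect; nearly all actives have a fitted effect of over 50% in size; the assay follows cell death caused by Vpr and the record does not say whether a fall means rescue or toxicity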
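Fission yeast strain RE007, carrying one chromosomally integrated HIV-1 vpr copy, was seeded at OD 0.01 in PMG+AL medium with 23 nL pinned compound. After 24 h at 30 °C and 99% humidity, viability was read by BacTiter-Glo luminescence.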
Cruzain inh Det – qHTS Assay for Promiscuous and Specific Inhibitors of Cruzain (with detergent). Cruzipain (Trypanosoma cruzi), P25779. purified cruzain, Z-FR-AMC fluorescence, 0.01% Triton. Potency, µM, for inactives: max response, negative = inhibition, actives largely listed as inhibitors. 200,000 tested, 0.43% active. AID 1478, 2009; active means well fitted curve in the direction sought with a large enough effect; inconclusive means small, poorly fitted or top-dose-only effect, or another doubt; inactive means no such curve, though single readings can be large; an effect the other way counts as inactive or inconclusive;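 further: plate controls were neutral wells for no effect and buffer without enzyme for full effect; nearly all actives have a fitted effect of over 40% in size; top concentration of the series not given in the record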
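Detergent-containing run (0.01% Triton X-100) in acetate buffer pH 5.5 with 5 mM DTT: enzyme at 1.5 nM final, 15 min compound preincubation at room temperature, then 2 uM Z-FR-AMC substrate. Activity taken as 60 s fluorescence increase at 360/450 nm.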
Marburg entry inh – qHTS for inhibitors of binding or entry into cells for Marburg Virus; Marburg virus pseudotyped entry inhibition, cell reporter; control for the full effect not named in the record; about a third of the inactives were read at about 46 µM; Potency, µM (titrated, usually from 37.8 µM), inactives show at the highest dose activity change, negative = inhibition, hits mostly inhibitors; 300,000 tested, 1.8% active; active = well fitted inhibition curve with a large enough effect; inconclusive = small, poorly fitted or top-dose-only effect, or effect the other way; inactive = flat fitted curve, though single readings scatter; tested in HEK293 cells; about a fifth of its hits are not listed in these tables; further: on the % scale 0 is the no-effect control and ±100 the full control effect; luciferase read-out
An asterisk follows results filed as active; ? = inconclusive; · = no result given; [ ] = another dose, or the depositor's remark. Unless noted, the call rests on the fitted dose curve; in most records, active means well fitted rising curve with a large enough effect; inconclusive means small, poorly fitted or top-dose-only effect; inactive means no such curve, though single readings can be large or run the other way. Potency means the concentration at half of the fitted maximal effect.

SMILES | Lassa entry inh | 2A StopGo | Cruzain noTriton | NS1 function inh | SARS PLP yeast | RE007 growth inh | Cruzain inh Det | Marburg entry inh
COc1cccc(C(=O)NCC2(c3ccc(OC)c(OC)c3)CCCC2)c1 | · | -17.5% | · | 3.1% | 9.8% | 23.5% | · | ·
CCOc1cc(C)c(S(=O)(=O)NC2CCCCC2)cc1C | -2.6% | 14.5% | -2.8% | -42.4% | -3.6% | -40.5% | -7.0% | -28.1%
Nc1nc(Sc2ccc(C(F)(F)F)cc2[N+](=O)[O-])n[nH]1 | -0.4% | -2.0% | 1.4% | 11.3% | 13.9% | -4.0% | 3.1% | ?
O=C(NN1C(=O)c2ccccc2NC1c1ccccc1OCc1ccccc1)c1ccncc1 (stereo not given) | -3.0% | -5.0% | 7.3% | -16.8% | 3.2% | -23.6% | -2.3% | ?
O=C1NC(=Nc2ccccc2Cl)SC1(CO)CO | · | -9.2% | · | -14.6% | 16.8% | -6.8% | · | ·
Cn1c(N)c(C(=O)COC(=O)CNS(=O)(=O)c2cccc(Cl)c2)c(=O)n(C)c1=O | ? | -21.3% | 8.6% | -0.7% | -8.9% | -6.4% | -2.2% | -1.0%
Cc1c(CC(=O)N[C@@H](C)C(=O)O)c(=O)oc2cc3c(cc12)CCC(C)(C)O3 | · | 9.0% | · | 7.0% | 1.4% | 5.8% | · | ·
CC(C)OCCCN(CC(O)c1ccccc1)CC(O)c1ccccc1 (stereo not given) | -22.2% | -2.8% | -3.7% | 15.0% | -8.5% | 13.7% | -0.3% | -5.1%
CCCn1nc(Oc2nc(NC(C)C)nc(N(C)C)n2)ccc1=O | 2.4%[46.1 µM] | -1.4% | · | -3.8% | -0.5% | 1.5% | · | -1.7%[46.1 µM]
COc1ccc(CN2CCCCCC2)cc1 | 18.2% | -4.6% | · | -9.8% | 0.9% | 7.1% | · | -3.0%
Cc1cc(C(=O)N/N=C/c2ccc(-c3cccc(Cl)c3Cl)o2)n[nH]1 | -29.0% | -9.4% | ? | 3.5% | 5.2% | -9.9% | -6.2% | -8.9%
COc1ccc(-n2c(Cc3cc(=O)[nH]c(=O)[nH]3)nnc2SCC(=O)Nc2ccccc2)cc1 | · | -11.4% | -15.8% | -14.9% | -2.6% | 0.0% | 4.4% | ·
Cc1cc2n(n1)C(c1ccc3c(c1)OCO3)Nc1c(C)cccc1-2 (stereo not given) | -10.5% | -1.2% | 2.1% | -50.2% | -6.9% | 3.0%[3.69 µM] | -9.5% | -2.7%
Cc1cc(C(=O)COC(=O)C23CC4CC(CC(O)(C4)C2)C3)c(C)n1-c1c(C)n(C)n(-c2ccccc2)c1=O | -1.4% | 5.5% | · | · | -5.4% | -8.2% | · | -5.4%
c1ccc(CC2CCCCN2)cc1 (stereo not given) | 0.2% | -3.8% | · | 1.9% | -13.3% | 4.0% | · | -2.7%
O=c1oc2ccccc2cc1-c1csc(NN=C2CCCC2)n1 | ? | -17.6% | -11.6% | 14.1% | 3.1% | -10.3% | -9.8% | ?
COCCCNC(=S)NNC(=O)c1cc(C2CC2)nc2ccccc12 | 1.7% | 22.4% | · | -0.1% | -1.2% | -3.6% | · | 4.8%
O=C(O)c1ccc(-c2nnc(-c3cccc(Br)c3)o2)cc1 | · | 38.0%[activator] | · | -2.5% | 0.1% | -15.1% | · | ·
O=C(Cc1ccccc1)Nc1nnc(SCC(=O)NC2CCCC2)s1 | -10.1% | 2.6% | · | · | -0.7% | 20.2% | · | 12.1%[46.1 µM]
CCOc1ccc(CCNC(=O)COC(=O)C2CCN(c3ccc(C(F)(F)F)cn3)CC2)cc1OCC | -6.7% | -13.3% | · | · | -4.3% | 25.4% | · | -1.3%
O=C(CSc1nnc(COc2ccc(Cl)cc2)n1Cc1ccco1)N1CCNC1=O | -12.1% | -17.5% | · | · | 0.4% | -10.5% | · | 0.4%[46.1 µM]
O=C(O)c1cccc(NS(=O)(=O)c2cccc(C(=O)Nc3ccccc3[N+](=O)[O-])c2)c1 | · | 9.2% | · | 23.3% | 13.6% | -9.8% | · | ·
COc1ccc(C(=O)NCCCSC)cc1OC1CCN(C(C)C)CC1 | 7.3%[46.1 µM] | 10.2% | · | 13.2% | · | -7.2% | · | ?
Cc1ccc(CN2CCNC2=O)cc1 | 0.2% | 13.0% | -1.3% | 17.0% | 2.1% | 18.2% | 4.3% | -0.5%
Cc1cc(C)nc(Oc2ccc(Br)cc2)n1 | · | 28.1% | · | 5.3% | -4.1% | -5.7% | · | ·
Cc1ccc(S(=O)(=O)N(C)C)cc1NC(=O)COC(=O)c1ccc(Cl)cc1 | -8.5%[46.1 µM] | 5.6% | · | -0.5% | -3.7% | 0.2% | · | -0.6%[46.1 µM]
CCc1ccc(CNC(=O)c2cc3c(=O)n(CC)c4ccccc4c3s2)cc1 | 26.9%[46.1 µM] | 25.6% | -3.8% | · | · | · | -1.4% | -0.8%[46.1 µM]
O=C(/C=C\c1ccco1)Nc1cc([N+](=O)[O-])ccc1F | ? | -5.6% | 0.3% | -8.4% | -23.3% | -5.4% | -0.2% | ?
COc1ccc(CCNC(=O)CN2C(=O)COc3ccccc32)cc1OC | ? | -11.4% | -7.9% | · | · | · | -0.2% | ·
CCC(CC)C(=O)Nc1ccc2nc(SCc3ccccc3)sc2c1 | 0.1%[46.1 µM] | -12.7% | 2.7% | · | · | · | -3.4% | 2.4%[46.1 µM]
Cc1ccc(C(=O)N2CCCC(c3ccc(Cl)cc3)=N2)cc1 | 12.7%[46.1 µM] | -19.8% | · | · | -23.9% | 6.2% | · | ?
COCCN(C(=O)COC(=O)CSc1ccc(Cl)cc1)c1c(N)n(CC(C)C)c(=O)[nH]c1=O | -1.4% | -14.3% | · | · | 0.1% | 2.3% | · | 17.3%
CCc1nc(SCC(=O)Nc2cc(C)ccc2OC)c2c(C)c(C)sc2n1 | 8.1%[46.1 µM] | -16.9% | · | 1.8% | -0.8% | 9.9% | · | ?
CNc1ccccc1C(=O)OCC(=O)N(CCOC)c1c(N)n(CC(C)C)c(=O)[nH]c1=O | 2.3% | -2.5% | · | · | -1.4% | -11.3% | · | 28.6%
Cc1ccc(CN2CCN(C(=O)CCC(=O)Nc3nnc(C(C)C)s3)CC2)c(C)c1 | 17.1%[46.1 µM] | -17.3% | · | 22.7% | 11.4% | -17.5% | · | 9.2%[46.1 µM]
Cc1ccccc1CCNC(=O)C1CCC(=O)N(Cc2ccc(Cl)cc2)C1 (stereo not given) | -2.0% | 11.7% | · | 2.3% | -1.0% | -11.7% | · | 0.7%

The list goes on, overlapping the part above by 2 compounds.
SMILES | Lassa entry inh | 2A StopGo | Cruzain noTriton | NS1 function inh | SARS PLP yeast | RE007 growth inh | Cruzain inh Det | Marburg entry inh
Cc1ccc(CN2CCN(C(=O)CCC(=O)Nc3nnc(C(C)C)s3)CC2)c(C)c1 | 17.1%[46.1 µM] | -17.3% | · | 22.7% | 11.4% | -17.5% | · | 9.2%[46.1 µM]
Cc1ccccc1CCNC(=O)C1CCC(=O)N(Cc2ccc(Cl)cc2)C1 (stereo not given) | -2.0% | 11.7% | · | 2.3% | -1.0% | -11.7% | · | 0.7%
O=C(Nc1ccccc1C(=O)N1CCOCC1)C1COc2ccccc2O1 (stereo not given) | 5.0% | 14.2% | -4.0% | -38.5% | 0.8% | 15.9% | 4.5% | 5.7%
CCC(=O)N1CCc2cc(S(=O)(=O)NCCC(=O)NCc3ccc(C)cc3)ccc21 | -14.0%[46.1 µM] | -9.6% | -9.5% | · | · | · | -2.7% | 8.0%[46.1 µM]
CCCCC(=O)NC(=S)Nc1cccc(NC(=O)CC)c1 | -0.5% | 43.3%[activator] | -2.7% | 10.3% | 4.4% | 4.8% | -7.7% | 21.6%
O=C(O)c1cc2c(cc1Br)OCCCO2 | 9.3% | -5.5% | -2.6% | 3.2% | -0.9% | 5.3% | -1.5% | -2.1%
Cc1ccc(Nc2nc(N)nc(-c3oc4ccccc4c3C)n2)cc1 | ? | 45.0%[activator] | · | -1.9% | -1.1% | -16.9% | · | ·
CCc1cc(=O)oc2cc(OCc3ccc(C(=O)O)o3)ccc12 | · | 39.1%[activator] | · | 3.1% | -0.2% | -1.5% | · | ·
O=C(Nc1ccccc1Cl)c1ccc(S(=O)(=O)N2CCOCC2)cc1 | · | -16.1% | -8.8% | -45.4% | -1.4% | -1.9% | -2.6% | ·
COc1cc(CNc2cccc(C(=O)O)c2)cc(Br)c1OCC(=O)NC(C)(C)C | ? | -21.1% | ? | ? | 23.7% | 4.8% | -15.2% | ?
O=C1CC(Cc2ccccc2)C(=O)N1c1ccccn1 (stereo not given) | -6.7% | -5.5% | · | 1.5% | 0.0% | -1.0% | · | -20.4%[46.1 µM]
Cc1cc(NC(=O)CCC(=O)N(Cc2ccco2)C(C(=O)NC2CCCCC2)c2ccccc2)no1 (stereo not given) | -15.8% | -19.3% | 4.7% | -8.3% | -6.5% | -6.0% | -3.5% | -18.2%
COC(=O)C(C(=O)OC)C(C(=O)OC)C(C(=O)OC)C(=O)OC | 17.1% | -21.5% | 13.7% | 14.1% | 5.7% | -5.0% | 1.4% | ?
Cc1cccc(NC(=O)c2c(O)c3ccccc3[nH]c2=O)c1 | · | 52.8%[activator] | · | 4.5% | -0.4% | 8.5% | · | ·

Single values from the entries so far.
Value for O=C(Nc1ccccc1Cl)c1ccc(S(=O)(=O)N2CCOCC2)cc1 under NS1 function inh: -45.4%
Value for CCC(=O)N1CCc2cc(S(=O)(=O)NCCC(=O)NCc3ccc(C)cc3)ccc21 under 2A StopGo: -9.6%
Value for Cc1cccc(NC(=O)c2c(O)c3ccccc3[nH]c2=O)c1 under RE007 growth inh: 8.5%
